Compound activity: PubChem BioAssay, ICCB-Longwood Screening Facility, Harvard Medical School
Mtb MenB inh: Mtb MenB enzyme inhibition. P9WNP5. MenB enzyme assay, absorbance read-out; some hits fall short of the stated cut. inhibition, %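 (about 12 µg/mL by stock and volumes)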. 100,000 compounds, 0.43% hits. AID 540299;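 active means mean of two replicates above 30%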;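 further: 0% = no compound and 100% = wells with inactive enzyme; the first replicate is given; strong numbers were not always called active; inactives centre near -10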
Polio RdRp inh: poliovirus RNA polymerase inhibition; P03300; poliovirus polymerase elongation, fluorescence polarization; active compounds read low; % elongation, % (compound at 16.7 µg/mL); 150,000 compounds, 0.66% hits; AID 588519; in the data active means % elongation below about 90%; further: some results filed as inactive read as strong as hits
Target sequence (P03300 1749-2209 limits assumed): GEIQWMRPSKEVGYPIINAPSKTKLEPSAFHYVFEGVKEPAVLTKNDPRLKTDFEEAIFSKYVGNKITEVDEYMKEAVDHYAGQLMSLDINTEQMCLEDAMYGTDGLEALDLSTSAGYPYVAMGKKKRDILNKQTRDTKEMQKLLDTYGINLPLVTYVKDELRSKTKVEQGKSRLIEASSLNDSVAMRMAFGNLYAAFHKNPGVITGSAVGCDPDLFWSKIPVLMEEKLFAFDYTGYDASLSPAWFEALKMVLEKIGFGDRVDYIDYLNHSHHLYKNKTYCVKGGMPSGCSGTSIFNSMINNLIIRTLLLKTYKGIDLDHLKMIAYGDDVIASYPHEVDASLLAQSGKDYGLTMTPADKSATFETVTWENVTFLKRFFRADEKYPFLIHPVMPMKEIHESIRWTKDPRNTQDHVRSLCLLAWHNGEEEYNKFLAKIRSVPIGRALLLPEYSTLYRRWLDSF
Mtb MbtI inh: MbtI salicylate synthase inhibition; purified MbtI enzyme, fluorescence intensity read-out; inhibition, %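 (about 17 µg/mL by stock and volumes)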; 100,000 compounds, 0.89% hits;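 active means above 50% in both replicates, above 80% if mildly self-fluorescent; inactive means the rest, strongly fluorescent compounds included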;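 further: 0% = mean of negative and 100% = mean of positive controls; one replicate is shown; some compounds called inactive have numbers as strong as hits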
Target sequence (P9WFX0 whole entry, looked up): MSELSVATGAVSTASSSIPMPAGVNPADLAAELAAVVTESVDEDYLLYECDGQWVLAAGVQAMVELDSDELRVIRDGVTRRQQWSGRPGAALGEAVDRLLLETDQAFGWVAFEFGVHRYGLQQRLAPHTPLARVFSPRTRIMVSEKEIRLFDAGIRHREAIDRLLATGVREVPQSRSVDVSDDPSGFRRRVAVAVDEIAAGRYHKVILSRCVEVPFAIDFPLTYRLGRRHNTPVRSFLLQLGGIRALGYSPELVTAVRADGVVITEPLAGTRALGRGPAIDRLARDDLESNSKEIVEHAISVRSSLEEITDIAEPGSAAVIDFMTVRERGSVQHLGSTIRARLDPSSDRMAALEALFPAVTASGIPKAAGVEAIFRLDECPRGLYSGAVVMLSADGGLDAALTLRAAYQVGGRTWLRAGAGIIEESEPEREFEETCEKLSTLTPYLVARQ
Polio RdRp inh intensity: also measured in Polio RdRp inh; calls as there; % elongation; measured here: total intensity read-out; formula for this scale not given here;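 total fluorescence in place of polarization; lower means less elongation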
Starred values were filed as active, the others as inactive; . = not tested or not shown; & = joins results of further samples. This is a random part of the collection; 1.9% or so of the library scored in one or more.

SMILES	Mtb MenB inh	Polio RdRp inh	Polio RdRp inh intensity	Mtb MbtI inh
CC1CN(S(=O)(=O)c2cc(C(=O)N(C)Cc3cccs3)ccc2Cl)CC(C)O1 (stereo not given)	9	104	96	2
COc1ccc(-c2noc(CN(C(=O)Nc3cccc(C)c3)C(C)C)n2)cc1	-17	102	103	-5
CCNC(=S)Nc1c(C)n(C)n(-c2ccccc2)c1=O	-10	101	90	.
CCCCNC(=O)c1cc(=O)[nH]c2ccccc12	0	103	98	0
NS(=O)(=O)c1ccc(CCn2c(=S)[nH]c3ccccc3c2=O)cc1	3	100	108	7
C=C(C)CSc1nc2ccc(Br)cc2c(=O)n1CC(C)O (stereo not given)	-18	104	105	29
CCc1nc(NCCc2ccccc2)c(C#N)c2c1CCCC2	4	103	105	40
Clc1ccccc1/C=N/c1c(-c2ccco2)nc2ccccn12	-43	101	96	-3
O=C(O)C1CC=CCC1C(=O)N1CC=C(c2ccccc2)CC1 (stereo not given)	-23	104	103	9
CCc1ccc(NC(=O)NC(C)(C)C)cc1	-12	104	100	-1

Further structures follow:
SMILES	Mtb MenB inh	Polio RdRp inh	Polio RdRp inh intensity	Mtb MbtI inh
CCOc1cc(/C=N/O)ccc1OCc1cccc(F)c1	-8	101	103	-7
Cc1cc(C(=O)NN)nn1C	-1	104	108	0
O=C(CN1CC(c2ccccc2)CC1=O)NCCc1ccccc1 (stereo not given)	-16	100	103	0
CC(C)CCNC(=O)c1cccc2c1SCCC2=O	-37	105	109	-8
Cc1c2c(=O)n(-c3ccccc3)[nH]c2cc(=O)n1Cc1ccccc1	-121	97	100	13
Cc1cc(C)nc(SCC(=O)OCN2C(=O)c3ccccc3C2=O)n1	-16	103	103	-10
CC(C(=O)NC1CCCC1)n1c2ccccc2c2cnn(C)c(=O)c21 (stereo not given)	-3	101	102	28
CCCCN1C(=O)C(O)(c2nnc(-c3ccccc3)o2)c2ccccc21 (stereo not given)	-17	104	108	-1
Cc1ccc(C(=O)COC(=O)C2CCC2)cc1	-1	103	107	5
CCCc1cc2c(cc1N)OCO2	11	100	99	13

Going on with the list.
SMILES	Mtb MenB inh	Polio RdRp inh	Polio RdRp inh intensity	Mtb MbtI inh
COC(=O)c1ccccc1NC(=O)c1cc[n+]([O-])cc1	-1	101	102	17
COc1ccc(-c2nn(-c3ccccc3)cc2CSC(=N)N)cc1OC	-14	100	99	63
Cc1c(F)cccc1NS(=O)(=O)c1cc2c3c(c1)c(C)cc(=O)n3CCC2	-11	101	102	3
CC(c1ccco1)N(C(=O)c1cccc(S(=O)(=O)N(C)C)c1)c1ccccn1 (stereo not given)	17	103	103	-3
O=C1CSC(=O)N1CCN1C(=O)S/C(=C\c2ccccc2O)C1=O	-64	100	99	26
O=C(N/N=C/c1cccnc1)c1ccccc1	-40	100	103	-11
CN(Cc1ccccc1)C(=O)Cc1ccccc1	-20	102	104	.
CCn1c(SC/C(O)=C(\C#N)C(=O)NCc2ccccc2)nnc1-c1cccs1	-7	107	116	-2
O=C(Nc1ccccc1)c1cccnc1NCCc1ccccc1	-18	99	104	-6
COc1cc2ccc(=O)oc2c(OC(C)=O)c1OC(C)=O	-2	107	114	.

(continued)
SMILES	Mtb MenB inh	Polio RdRp inh	Polio RdRp inh intensity	Mtb MbtI inh
O=C(Cn1nnc(-c2cccc(C(F)(F)F)c2)n1)N(C1CCCC1)C1CCS(=O)(=O)C1 (stereo not given)	2	96	101	9
O=C(Nc1ccc(NC(=O)C2CCCCC2)nc1)C1CC1	-5	101	102	-5
CC(=O)N/N=C/c1cn(-c2ccccc2)nc1-c1cccs1	-19	105	105	-4
CC(C)(C)NCC(O)c1ccc(O)c(CO)c1 (stereo not given)	-7&2	98&96	103&99	-4&-3
Cc1c(C(=O)N2CCN(S(=O)(=O)/C=C/c3ccccc3)CC2)oc2ccc(Cl)cc12	-12	101	108	-6
COC(=O)c1ccc(C(=O)Nc2ccc3nc(-c4ccccn4)[nH]c3c2)cc1	-14	101	103	9
Cc1cccc(C)c1NC1=NCCCCC1	-7	102	107	-3
CC(C)Cn1c(=O)c(C#N)cc2c(=O)n3ccccc3nc21	1	103	102	104
O=C(COc1ccccc1)N1CCN(Cc2ccc(Br)cc2)CC1	5	101	102	-4
COc1ccc(C(=O)CN2Cc3ccccc3C2=N)cc1OC	-6	99	96	3

(more compounds)
SMILES	Mtb MenB inh	Polio RdRp inh	Polio RdRp inh intensity	Mtb MbtI inh
C=CC[C@@H]1Cc2ccccc2[C@H](CC=C)N1	21	102	107	45
O=C1CC(CSc2nnnn2-c2ccccc2)=NN1c1ccccc1	-66	100	103	-5
CC(C)(C)C(=O)NCC(c1ccco1)N1CCN(c2ccc(F)cc2)CC1 (stereo not given)	-2	100	101	-8
COc1ccccc1NS(=O)(=O)c1ccc2oc(Nc3ccc(S(=O)(=O)N4CCCCC4)cc3)nc2c1	1	98	104	-13
CCOc1ccc(-n2c(N)c(C(=O)NCc3cccnc3)sc2=S)cc1	-4	99	101	26
COc1ccc(OC)c(Nc2nc(-c3cccc(Cl)c3)c3c(n2)-c2ccccc2OC3)c1	4	105	106	-5
NC(=O)CCS(=O)(=O)c1ccc(Cl)cc1	.	104	105	0
COC(=O)c1sccc1NC=C(C#N)C#N	7	103	97	-1
Cc1ccc(S(=O)(=O)Nc2cccc(C(=O)N3CCCCC3)c2)cc1	-24	106	109	-3
CC(=O)N1c2c(ccc3ccccc23)C(C)=CC1(C)C	-22	100	103	-153

The list continues:
SMILES	Mtb MenB inh	Polio RdRp inh	Polio RdRp inh intensity	Mtb MbtI inh
COC(=O)/C=c1\sc2ncnn2c1=O	1	102	103	-10
CCc1ccc(NS(=O)(=O)c2ccc3[nH]cc(C(=O)N(CC)CC)c(=O)c3c2)cc1	-22	101	98	-3
Clc1ccc(-c2nc(N3CCN(Cc4ccc5c(c4)OCO5)CC3)c3ccccc3n2)cc1	-4	101	102	3
COc1ccc(SS(=O)(=O)c2ccc(OC)c(NC(C)=O)c2)cc1NC(C)=O	-17	102	98	91*
CC1CN(C(=O)NC23CC4CC(CC(C4)C2)C3)c2cc(Cl)ccc2O1 (stereo not given)	-17	105	105	3
N#Cc1cccc(NC(=O)CN2CCc3ccccc32)c1	7	103	106	-4
CC1(C)CC(=O)C2=C(C1)c1c(ccc3ncccc13)NC2C1CC=CCC1 (stereo not given)	-21	102	103	18
COC(=O)c1cc(/C=N/NC(N)=O)cn1C	-2	100	100	-18
COc1cccc(OCCSc2nc(C(C)C)cc(=O)[nH]2)c1	-49	101	97	.
CCCCn1c(CCC(=O)OCC(=O)Nc2ccc(OC)cc2)nc2cc(S(=O)(=O)N3CCOCC3)ccc21	-23	105	101	7

Next section
SMILES	Mtb MenB inh	Polio RdRp inh	Polio RdRp inh intensity	Mtb MbtI inh
O=C(O)C(Cc1ccccc1)Nc1ncnc2c1oc1ccccc12 (stereo not given)	-12	102	97	7
O=C1c2cccc3cccc(c23)N1c1ccccc1	-17	103	103	5
CC(C)C1CCC(C(=O)N[C@@H](Cc2ccccc2)C(=O)O)CC1 (stereo not given in full)	3	99	99	2
CCCCN(C(=O)CC1CCCC1)c1c(N)n(Cc2ccccc2)c(=O)[nH]c1=O	8	97	101	2
Cc1cnc(C(=O)OCc2cc(Cl)c3c(c2)OCCO3)cn1	0	107	112	-4
COC(=O)c1ccc(CSc2ccc(Br)cc2)o1	-25	99	100	5
Cc1ccc(C)n1/N=C1\NC(=O)CS1	-19	102	104	-39
CC(C)Cn1c(N2CCN(C(=O)c3sc4ccccc4c3Cl)CC2)nc2ccccc21	-75	104	107	-3
C[C@]12CC[C@H](O)C[C@H]1CC[C@@H]1[C@@H]2C[C@@H](O)[C@]2(C)[C@@H](C3=CC(=O)OC3)CC[C@]12O	-3	99	101	-4
COCCN1C(=O)/C(=C\c2ccc3c(c2)OCO3)SC1=S	-20	91	193	.

Next structures
SMILES	Mtb MenB inh	Polio RdRp inh	Polio RdRp inh intensity	Mtb MbtI inh
Nc1cccc(-c2csnn2)c1	-26	104	102	5
O=C(CN(CC(=O)N1CCOCC1)S(=O)(=O)c1ccc2ccccc2c1)N1CCOCC1	-30	102	92	-15
CN(Cc1ccc(C(F)(F)F)cc1)c1ccc(S(=O)(=O)N2CCCC2)cn1	-2	104	102	-3
C/C(=N\S(=O)(=O)c1ccc(C)cc1)Nc1ccc(O)c(C)c1	-6	104	96	.
CC(=O)Nc1ccc(OC(=O)c2ccco2)cc1	-42	101	101	-3
O=c1c2ccccc2nnn1CSc1ncnc2sccc12	-29	104	107	-8
CCOC(=O)NC1C=CS(=O)(=O)C1 (stereo not given)	4	100	99	-3
Cc1csc2nc(O)c(C(=O)NCCCN3CCOCC3)c(=O)n12	17	97	104	7
CCOC(=O)c1c(Nc2ccccc2N)cc(C)nc1C	-28	104	103	-2
Cc1cc(N)n(C2CCOC(C)(C)C2)n1 (stereo not given)	-13	106	110	.

Next section
SMILES	Mtb MenB inh	Polio RdRp inh	Polio RdRp inh intensity	Mtb MbtI inh
Nc1sc2c(c1-c1nc3ccccc3[nH]1)CCCC2	.	104	113	42
Cc1ccc(O)c(C(C)(C)C)c1	-8	101	110	.
COc1cc(-c2nn(CN3CC(C)OC(C)C3)c(=S)o2)cc(OC)c1OC (stereo not given)	-36	104	97	-9
C=CCn1c(SCC(=O)Nc2sc(C(=O)OC)c(C)c2C(=O)OC)nc2ccccc21	1	.	.	14
Cc1cc(C)nc(Oc2ccc(Br)cc2Br)n1	-13	101	104	-10
CCC(c1nnc(SCC(=O)c2ccccc2)n1Cc1ccccc1)N(C)C (stereo not given)	-19	99	103	9
O=C(NCc1ccco1)c1ccccc1	-44	103	109	.
CCC(C(=O)NC1CCN(C)CC1)c1ccccc1 (stereo not given)	-2	99	101	-3
C/C(=N/NS(C)(=O)=O)c1ccc2ccccc2c1	0	100	101	29
CC(C)CCOc1ccc(C(=O)C(C)C)cc1	.	103	105	-13

Part of the list above in order of SMILES length, rising:
SMILES	Mtb MenB inh	Polio RdRp inh	Polio RdRp inh intensity	Mtb MbtI inh
Cc1ccc(O)c(C(C)(C)C)c1	-8	101	110	.
Cc1cc(C)nc(Oc2ccc(Br)cc2Br)n1	-13	101	104	-10
CCC(c1nnc(SCC(=O)c2ccccc2)n1Cc1ccccc1)N(C)C (stereo not given)	-19	99	103	9
COc1cc(-c2nn(CN3CC(C)OC(C)C3)c(=S)o2)cc(OC)c1OC (stereo not given)	-36	104	97	-9
C=CCn1c(SCC(=O)Nc2sc(C(=O)OC)c(C)c2C(=O)OC)nc2ccccc21	1	.	.	14

Following part:
SMILES	Mtb MenB inh	Polio RdRp inh	Polio RdRp inh intensity	Mtb MbtI inh
Cc1ccc(CCNC(=O)c2cc(=O)[nH]c3ccc(S(=O)(=O)N4CCCC4)cc23)cc1	-20	102	102	3
O=C(Cc1n[nH]c(=O)c2ccccc12)NCCc1ccccn1	-14	107	104	-5
Cc1nc2c3cc(F)ccc3n(C)c2s1	24	101	98	24
Cc1ccc2oc(=O)c(C(=O)O)cc2c1	-8	102	102	11
O=C(NC1CCCCC1)C1c2ccccc2C(=O)N1Cc1ccc2c(c1)OCO2 (stereo not given)	-27	104	105	-8
C=CCN(CC(=O)N1CCN(c2ccccc2)CC1)S(=O)(=O)c1ccccc1C(F)(F)F	-33	.	.	-2
O=C(c1ccc(Nc2nc3ccccc3n3cnnc23)cc1)N1CCN(C2CCCCC2)CC1	-11	99	105	2
O=C(CSc1nnc2ccccn12)N1CCCC1	-38	104	104	132
COc1cc(Cl)c(NC(=O)CCn2ccc(C)n2)c(OC)c1	4	100	103	-21
COc1ccc(N2CC(C(=O)NC3=NCCS3)CC2=O)cc1 (stereo not given)	-12	101	102	-10

The final 2 entries of the part before come first, to join the parts.
SMILES	Mtb MenB inh	Polio RdRp inh	Polio RdRp inh intensity	Mtb MbtI inh
COc1cc(Cl)c(NC(=O)CCn2ccc(C)n2)c(OC)c1	4	100	103	-21
COc1ccc(N2CC(C(=O)NC3=NCCS3)CC2=O)cc1 (stereo not given)	-12	101	102	-10
COc1cc(CNC(=O)C2CCCC2)cc(OC)c1OC	-2	104	109	.
O=C(OCCOc1ccccc1)c1ccc(-n2cnnn2)cc1	-8	98	102	-20
O=C(COC(=O)C12CCC(=O)N1c1ccccc1C(=O)N2C1CC1)Nc1ncc(Cl)cc1Cl (stereo not given)	-25	91	128	2
Cc1ccc(N2C(=O)SC(N(C)c3ccccc3)C2=O)cc1 (stereo not given)	-14	102	104	-14
N#Cc1cn(-c2ccccc2)nc1-c1cccs1	.	103	96	-3
